Screening results (PubChem BioAssay)
Choline anaer gr – blocks anaerobic gram-negative growth on choline; calls only; 55,000 compounds, 0.2% hits; AID 1963822; Gram-negative bacterium anaerobic choline minimal medium, absorbance growth; active compounds read low; many inactives read as strong as hits in the columns shown;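 active means growth z-score on choline under -2 at 7 or 20 h with little or no fall on glycerol, limits in tiers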;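 further: stock transfer was 300 nL into about 50 µL; the organism is E. coli; final concentration not given here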
Choline anaer gr early – second read-out of Choline anaer gr, no call of its own (marks repeat the call); z-score; measured here: choline growth z-score, timepoint 1;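 score of optical density at 7 h as mean of two plates; lower means less growth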
* hit, by the source's call; i = inactive; & = joins results of further samples. These rows are one share of the data; count on the stated rates, not on these rows.

| smiles | Choline anaer gr | Choline anaer gr early |
| --- | --- | --- |
| CC(C(=O)NCC1CCCO1)C1CCN(C(=O)c2cc3cc(Cl)ccc3[nH]2)CC1 (stereo not given) | i | -0.11 |
| Cc1c(N2CCC(C(=O)NC3CC3)CC2)c(=O)n(C)c(=O)n1-c1ccccc1 | i | -0.67 |
| Cc1onc(-c2ccc(Br)cc2)c1C(=O)NC(C)CCc1ccccc1 (stereo not given) | i | -0.02 |
| Cc1ccc(-c2noc(Cn3nc(-c4ccccc4)ccc3=O)n2)cc1 | i | -1.3 |
| C=CC[C@@H]1/C=C(\C)C[C@H](C)C[C@H](OC)[C@H]2O[C@@](O)(C(=O)C(=O)N3CCCC[C@H]3C(=O)O[C@H](/C(C)=C/[C@@H]3CC[C@@H](O)[C@H](OC)C3)[C@H](C)[C@@H](O)CC1=O)[C@H](C)C[C@@H]2OC | i | 0.47 |
| O=c1oc2ccccc2n1CC1CCCN1S(=O)(=O)c1ccc(-n2cnnn2)cc1 (stereo not given) | i | -0.51 |
| CCC(C)NS(=O)(=O)c1cc(C(=O)N2CCCC2)cs1 (stereo not given) | i | -0.86 |
| O=C(CN1CC(=O)N2CCCCC2C1=O)Nc1ccc(C(=O)NCc2ccccc2)cc1 (stereo not given) | i | -1.3 |
| COc1cc(OC)cc(C(=O)Nc2ccc(SCc3nnc(-c4ccccc4)o3)cc2)c1 | i | 1.2 |
| COc1ccc(-c2[nH]nc3nc(-c4ccc(O)c(O)c4)cc(C(=O)O)c23)cc1 | i | -0.24 |
| O=C(CN1C(=O)COc2ccc(C(=O)N3CCCC3)cc21)NCCCN1CCCC1 | i | -0.28 |
| OC(CCN1CCCCC1)(c1ccccc1)C1CC2C=CC1C2 (stereo not given) | i | -0.2 |
| CCOc1ccccc1NC(=O)Cn1c(=O)n(-c2ccc(CC(=O)NC(C)C)cc2)c(=O)c2ccccc21 | i | 0.43 |
| Cc1c(CN2CCSCC2)nnn1-c1ccc(F)cc1 | i | -1.2 |
| CCN1CCN(CCCNC(=O)c2nn(C)c3c2CCc2sccc2-3)CC1 | i | -1.1 |
| COc1ccc(-c2noc(CSCC(=O)N3CCCCC3C)n2)cc1OC (stereo not given) | i | -0.55 |
| COc1ccccc1N1CCN(c2ccc(=O)n(CC(=O)NCCN(C)C)n2)CC1 | i | -0.42 |
| CCC(=O)Nc1cc(N2CCn3c(nc4ccccc43)C2)ccc1C | i | -0.04 |
| CCCN(CCC)C(=O)Cn1c(C2CCCN2C(=O)CC)nc2ccccc21 (stereo not given) | i | 1.5 |
| CN(C)c1ccc(C(CNC(=O)c2ccccc2Cl)N2CCc3ccccc3C2)cc1 (stereo not given) | i | 1.1 |
| COc1ccc(C2CCCN2C(=O)Nc2cc(OC)ccc2OC)cc1 (stereo not given) | i | -0.14 |
| O=C(C1CCN(c2ccc(-c3cccc(F)c3)nn2)CC1)N1CCC(N2CCCCC2)CC1 | i | -0.32 |
| COc1cc2c(cc1OC)C1CC(=O)N(CCc3ccccc3)C(=O)N1CC2 (stereo not given) | i | 1.6 |
| CCc1cc2c(NC(C)C)ncnc2s1 | i | -0.94 |
| CCCn1c(=O)c2ccccc2n2c(=O)n(CC(=O)c3cccc(OC)c3)nc12 | i | 0.39 |

Compound profiles, as listed above:
CCC(C)NS(=O)(=O)c1cc(C(=O)N2CCCC2)cs1 (stereo not given) across the screens: Choline anaer gr = i; Choline anaer gr early = -0.86
COc1cc(OC)cc(C(=O)Nc2ccc(SCc3nnc(-c4ccccc4)o3)cc2)c1 across the screens: Choline anaer gr = i; Choline anaer gr early = 1.2

(further entries)
| smiles | Choline anaer gr | Choline anaer gr early |
| --- | --- | --- |
| O=C(NCc1ccc(Cl)cc1)C1Nc2cc(F)ccc2S(=O)(=O)N1 (stereo not given) | i | 0.52 |
| Cc1ccc(-c2noc(C3CCCN3C(=O)c3ccc(CS(=O)(=O)c4ccccc4)cc3)n2)cc1 (stereo not given) | i | 1.2 |
| Cc1nc(SCc2nc(-c3ccc(Cl)cc3)oc2C)[nH]c(=O)c1C | i | 0.35 |
| COc1cc(OC)cc(C(=O)Nc2nc(CC(=O)Nc3nc4ccccc4s3)cs2)c1 | i | 0.08 |
| O=C(NCc1ccc(Br)cc1)C1CCCN(c2ccnc(-c3cccc(F)c3)n2)C1 (stereo not given) | i | 1.1 |
| COc1ccccc1-n1c(=O)n(Cc2nc(-c3cc(C)ccc3C)oc2C)c(=O)c2cccnc21 | i | 0.12 |
| COCC(=O)Nc1ccc(Cl)cc1OCc1cc(=O)n2oc(C)cc2n1 | i | -1.8 |
| Cc1ccc(-c2cnnc(-n3nc(C)c4c3NC(=O)CC4c3ccc(C)c(C)c3)n2)cc1 (stereo not given) | i | 0.35 |
| CCOC(=O)N1CCN(/[N+]([O-])=N/Oc2ccc([N+](=O)[O-])cc2[N+](=O)[O-])CC1 | i | -0.05 |
| O=S(=O)(c1cc(-c2nnc(C3CCCC3)o2)co1)N1CCCCCC1 | i | 2.1 |
| CCOC(=O)C1CCN(c2c(NCCN3CCOCC3)c(=O)c2=O)CC1 | i | 0.56 |
| COc1ccc(C(=O)Nc2cccc3ccc(C)nc23)cc1 | i | -0.86 |
| O=C(Cn1cnc2c(sc3ncccc32)c1=O)Nc1cccc(F)c1 | i | -0.41 |
| CCOc1nc2cccnc2n(CC(=O)Nc2cccc(C)c2C)c1=O | i | -0.01 |
| Fc1ccc(-c2noc(CCc3nnc4ccc(N5CCN(Cc6ccccc6)CC5)nn34)n2)cc1 | i | -0.92 |
| CCCN1CCN(C(=O)c2ccc(-c3nc4ccccc4n(CC(C)C)c3=O)cc2)CC1 | i | -0.46 |
| CC[C@@]1(O)C(=O)OCc2c1cc1n(c2=O)Cc2cc3c(CN(C)C)c(O)ccc3nc2-1 | i | 0.62&-0.2&0.3&0.19 |
| CCC(C)NC(=O)CC1CCN(C(=O)c2sc(-c3ccc(C)cc3)nc2C)CC1 (stereo not given) | i | 0.75 |
| CCOc1ccc2nc(N3CCC(C(=O)NCc4cccnc4)CC3)sc2c1 | i | -0.53 |
| Cc1sc(C)c(S(=O)(=O)N2CCCc3ccccc32)c1-c1ccno1 | i | 0.33 |
| CCCn1c(=O)c2cc(Cl)ccc2n2c(=O)n(CC(=O)Nc3cc(F)ccc3F)nc12 | i | -0.09 |
| O=C(c1c(-c2ccc(Cl)cc2)nc2n1CCS2(=O)=O)N1CCOCC1 | i | 0.05 |
| CCCCCC(=O)CC[C@@H]1[C@@H](C/C=C\CCCC(=O)O)[C@@H](O)C[C@H]1O | i | 0.41 |
| CCS(=O)(=O)N1CCN(c2ncnc3c2nnn3-c2ccc(F)cc2)CC1 | i | -0.88 |
| O=C(CC1c2ccccc2CCN1S(=O)(=O)c1ccc(Cl)cc1)NCc1cccnc1 (stereo not given) | i | -0.11 |

Next records follow:
| smiles | Choline anaer gr | Choline anaer gr early |
| --- | --- | --- |
| Cc1cc(-c2cc(S(=O)(=O)NC3CCCC3)c(C)s2)on1 | i | -0.3 |
| COC(=O)c1ncn2c1C(=O)N(Cc1cccc(Cl)c1)C(C)(C(=O)NC1CCCC1)C2 (stereo not given) | i | -0.12 |
| Cc1cc(N(C)C)nc(Nc2ccc(NS(=O)(=O)c3cc(C)c(C)cc3C)cc2)n1 | i | -0.19 |
| O=C(Nc1ccccc1)Nc1nc(CC(=O)N2CCc3ccccc32)cs1 | i | -1.1 |
| CCOc1ccc(-c2noc(CSc3nc4cc5c(cc4c(=O)n3CCCOC)OCO5)n2)cc1 | i | 0.17 |
| Cc1ccc(CNS(=O)(=O)c2cc(CN3C(=O)C4CCCCC4C3=O)ccc2C)cc1 (stereo not given) | i | -1.6 |
| Cc1ccccc1C(=O)Nc1nonc1C | i | -0.25 |
| CCc1cc(C(C)=O)c(O)cc1OCCCCCC(C)(C)c1nn[nH]n1 | i | 0.41 |
| CN(C)c1ccc(-c2noc(C(=O)NCCc3ccc(Cl)cc3)n2)cc1 | i | 3.1 |
| O=c1n(Cc2ccc(F)cc2)nc2c(S(=O)(=O)N3CCc4ccccc4C3)cccn12 | i | 0.33 |
| O=C1CCCc2cc(S(=O)(=O)N3CCC(CN4CCc5ccccc5C4)CC3)ccc2N1 | i | 0.74 |
| Cc1ccc(C)c(NC(=O)Nc2ccc(-c3nnc(-c4ccccc4)o3)cc2)c1 | i | -1.4 |
| COCCCNCc1ccc(-c2ccccc2Cl)o1 | i | -0.18 |
| O=C(c1cnc2sc3c(n2c1=O)CCCCCC3)N1CCCC1 | i | 0.19 |
| CCN(CC)c1cc(CNC(=O)NCCC(C)C)ccn1 | i | -1.1 |
| Cc1cccc(C(=O)Nc2ccc3c(c2)CC(=O)N3C)c1 | i | -0.5 |
| CCCNC(=O)Nc1cccc(-c2noc(-c3ccc(F)cc3)n2)c1 | i | -1.3 |
| Cc1nc2c3ccccc3n3c(CCCC(=O)NCCc4ccccc4)nnc3n2n1 | i | 0.38 |
| Cc1[nH]c(=O)[nH]c(=O)c1S(=O)(=O)N1CCOCC1 | i | 0.66 |
| NC(=O)c1c(NC(=O)CS(=O)(=O)c2ccc(Cl)cc2)sc2c1CCCCC2 | i | 0.03 |
| O=C(Nc1ccccc1Br)c1nc2nc(-c3ccc(F)cc3)cc(C(F)(F)F)n2n1 | i | 0.12 |
| O=C(O)Cn1cnc2c([nH]c3ccc(F)cc32)c1=O | i | -0.01 |
| CCc1onc(C)c1C1CCCN1Cc1cn(C)nc1C (stereo not given) | i | -0.71 |
| CCOC(=O)c1ccccc1NC(=O)c1cc2c(s1)-c1ccsc1CC2 | i | -0.42 |
| CCCCn1c(=O)c2c(nc3n2CCS3)n(C)c1=O | i | 0.27 |

Continuation.
Compound	Choline anaer gr	Choline anaer gr early
Cc1cccc(-c2cc3nc(CN(C)Cc4ccccc4)cc(=O)n3[nH]2)c1	i	-0.02
Cc1c(Cl)cccc1Nc1nnc(C)c(=O)[nH]1	i	0.07
O=C(O)CCC/C=C\C[C@@H]1[C@@H](/C=C/[C@H](O)COc2cccc(C(F)(F)F)c2)[C@H](O)C[C@@H]1O	i	0.37
Clc1ccc(-n2cc(-c3ccccc3)c3c(NC4CC4)ncnc32)cc1	i	0.74
Cc1csc(-c2cc(S(=O)(=O)NCC(C)C)cn2CC(=O)N2CCCCC2)n1	i	0.24
c1ccc(-c2cc(NC3CC3)n3cnnc3n2)cc1	i	0.5
COc1ccc(N2C(=O)CSc3c(c(C)nn3-c3ccccc3)C2C(=O)NC2CCCC2)cc1 (stereo not given)	i	0.67
O=c1[nH]c2cc3c(cc2c(=O)n1Cc1nc(-c2ccccc2Br)no1)OCO3	i	-0.1
CC(C)c1cc(C2CCCN2S(=O)(=O)c2ccc(Cl)s2)no1 (stereo not given)	i	-1.7
CCC(=O)N1CCc2c(c(C(=O)N3CCC(C(=O)NCc4ccc(OC)cc4)CC3)nn2C)C1	i	-0.92
Cc1cc2n(n1)CCC(=O)N2CCCC(=O)NCCc1ccc(Cl)cc1	i	-0.3
C=CCNC(=O)Cn1nc(N2CCN(c3ccccc3)CC2)ccc1=O	i	-0.11
Cc1ccc(Cl)cc1NC(=O)CN1C(=O)CCCc2ccccc21	i	-1.1
O=S(=O)(NCc1ccc(Cl)cc1)c1ccc2[nH]c3c(c2c1)CCCC3	i	0.67
O=C(NCCc1csc2nc(-c3cccc(F)c3)nn12)c1cccc(F)c1	i	-0.91
CCOC(=O)C1CCCN(C(=O)C2CCN(c3ccc4nnc(C)n4n3)CC2)C1 (stereo not given)	i	-0.06
O=C(NCCCN1CCc2ccccc2C1)c1ccc(Cn2c(=O)c(=O)[nH]c3cccnc32)cc1	i	-0.43
COC(=O)CSc1nc2sc3c(c2c(=O)n1Cc1ccccc1)CCCCC3	i	-1.6
CCCNC(=O)c1sc(-n2nc(C)cc2C)nc1C	i	0.23
Fc1cccc(-c2noc(-c3cc(N4CCOCC4)nc4ccccc34)n2)c1	i	0.15

Later entries:
Compound	Choline anaer gr	Choline anaer gr early
CC(C)Nc1ncnc2c1cnn2-c1ccccc1	i	-0.05
Cc1noc(C)c1C1CCCN1Cc1cc(Br)ccc1F (stereo not given)	i	0.4
Cc1cccc(S(=O)(=O)Nc2ccccc2-c2ccc3ccccc3n2)c1	i	1.6
Cn1c(=O)n(CC(=O)O)c(=O)c2c1nc1n2CCN1c1ccc(Cl)cc1	i	-2.6
O=C(Nc1c(C(=O)Nc2ccc(Cl)cc2)oc2ccccc12)c1cc(-c2ccccc2)on1	i	0.14
O=C(C1CCCN(c2nc3cccnc3s2)C1)N1CCN(c2cccc(Cl)c2)CC1 (stereo not given)	i	0.13
Cc1cc(C)cc(NC(=O)C2CCCN(c3ccc(-c4ccccc4)nn3)C2)c1 (stereo not given)	i	-0.11
CC(C)c1ccc(CNc2nc3nc(CN4CCOCC4)cc(=O)n3[nH]2)cc1	i	-0.54
O=C(c1ccc(S(=O)(=O)c2ccc(Br)cc2)nc1)N1CCN(c2ccccn2)CC1	i	-0.05
Cc1ccc(NC(=O)c2nnc(SCC(=O)NCc3ccccn3)s2)cc1	i	-1.3
COc1ccccc1N1CCN(CCCCN2C(=O)c3ccccc3C2=O)CC1	i	0.36&-0.47
CCOc1ccc(-n2nnnc2CNC(=O)Nc2ccccc2)cc1	i	-0.77
CCCCC/C=C\C/C=C\C/C=C\C/C=C\CCCC(=O)O[C@@H](CO)COC(=O)CCCCCCCCCCCCCCCCC	i	0.04
Cc1ncc(C(=O)NCc2ccccc2)c(C)n1	i	-1.3

Five records drawn at random from the list so far, as already listed:
Compound	Choline anaer gr	Choline anaer gr early
O=C(NCCc1csc2nc(-c3cccc(F)c3)nn12)c1cccc(F)c1	i	-0.91
CC(C(=O)NCC1CCCO1)C1CCN(C(=O)c2cc3cc(Cl)ccc3[nH]2)CC1 (stereo not given)	i	-0.11
CCC(=O)N1CCc2c(c(C(=O)N3CCC(C(=O)NCc4ccc(OC)cc4)CC3)nn2C)C1	i	-0.92
COCCCNCc1ccc(-c2ccccc2Cl)o1	i	-0.18
O=S(=O)(NCc1ccc(Cl)cc1)c1ccc2[nH]c3c(c2c1)CCCC3	i	0.67
